High-throughput results (PubChem)
gsp ag: gsp mutant agonism; gsp mutant cells, cAMP HTRF, 30 min; control for the full effect not named in the record; Potency, µM (highest dose often 76.9 µM), without a hit: top-dose activation (cAMP increase), most hits filed as activators; 340,000 compounds, 0.13% hits; active = well fitted activation curve with a large enough effect; inconclusive = small, poorly fitted or top-dose-only effect, or another doubt; inactive = no such curve, though single readings can be large or run the other way; cell line not stated here;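 further: phosphodiesterase inhibitor Ro 20-1724 added with compounds to block cAMP breakdown; potency means the concentration at half of the fitted maximal effect; nearly all actives have a fitted effect of over 60% in size; about a fifth of the inactives were tested at one dose only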
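Cells stably selected in G418 were plated at 2000/well, grown 16-24 hr, then given compounds in DMSO with the PDE inhibitor […] (300 uM solution added) for 30 min at 37C; cAMP was read by HTRF.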
Sfp inh: blocks B. subtilis Sfp PPTase activity | 310,000 compounds, 3.5% hits | Q9F4F7 | Potency, µM, inactives show max response, negative = inhibition, usual class: inhibitors | Biochemical Sfp PPTase activity, qHTS; active means well fitted inhibition curve with a large enough effect; inconclusive means small, poorly fitted or top-dose-only effect, or another doubt; inactive means no such curve, though single readings can be large or run the other way;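 further: the enzyme is Sfp with the accession as filed and its product quenches rhodamine fluorescence; potency means the concentration at half of the fitted maximal effect; 0% = enzyme reaction without inhibitor and -100% = no enzyme wells; top concentration of the series not given in the record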
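Fluorescence-quenching assay: 15 nM Sfp-PPTase preincubated 15 min at room temperature with compound, then 5 uM rhodamine-CoA and 12.5 uM BHQ-2-labelled YbbR peptide added. Fluorescence (ex 525/em 598 nm) read at start and after 30 min; difference gives rate.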
Menin MLL FP FL: menin-MLL binding inhibition, fluorescein peptide | Fluorescence polarization, fluorescein-MLL peptide displacement from menin | FP activity change, % at 61.4 µM | 290,000 tested, under 10 active | AID 1766; inconclusive = falling polarisation curve, or a change in total fluorescence; inactive = total fluorescence flat and polarisation flat or rising; no compound was filed as active; the % refers to the polarisation; negative = inhibition;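 further: % of control where 0% means no effect; inhibitors lower the polarisation; unlabelled MLL peptide was the positive control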
TRPV1 potentiator: enhances activation of the human vanilloid receptor TRPV1 | 320,000 compounds, 0.02% hits | AID 540277 | TRPV1-expressing cells, Fluo-8 calcium influx, capsaicin EC20 potentiation; host cell line not named in the record; control for the full effect not named in the record | potentiation, % at 8.33 µM; active means potentiation above 80%; inconclusive means 30% to 80%; inactive means below 30%; further: 0% is about no effect
Target sequence (Q8NER1 whole entry, looked up): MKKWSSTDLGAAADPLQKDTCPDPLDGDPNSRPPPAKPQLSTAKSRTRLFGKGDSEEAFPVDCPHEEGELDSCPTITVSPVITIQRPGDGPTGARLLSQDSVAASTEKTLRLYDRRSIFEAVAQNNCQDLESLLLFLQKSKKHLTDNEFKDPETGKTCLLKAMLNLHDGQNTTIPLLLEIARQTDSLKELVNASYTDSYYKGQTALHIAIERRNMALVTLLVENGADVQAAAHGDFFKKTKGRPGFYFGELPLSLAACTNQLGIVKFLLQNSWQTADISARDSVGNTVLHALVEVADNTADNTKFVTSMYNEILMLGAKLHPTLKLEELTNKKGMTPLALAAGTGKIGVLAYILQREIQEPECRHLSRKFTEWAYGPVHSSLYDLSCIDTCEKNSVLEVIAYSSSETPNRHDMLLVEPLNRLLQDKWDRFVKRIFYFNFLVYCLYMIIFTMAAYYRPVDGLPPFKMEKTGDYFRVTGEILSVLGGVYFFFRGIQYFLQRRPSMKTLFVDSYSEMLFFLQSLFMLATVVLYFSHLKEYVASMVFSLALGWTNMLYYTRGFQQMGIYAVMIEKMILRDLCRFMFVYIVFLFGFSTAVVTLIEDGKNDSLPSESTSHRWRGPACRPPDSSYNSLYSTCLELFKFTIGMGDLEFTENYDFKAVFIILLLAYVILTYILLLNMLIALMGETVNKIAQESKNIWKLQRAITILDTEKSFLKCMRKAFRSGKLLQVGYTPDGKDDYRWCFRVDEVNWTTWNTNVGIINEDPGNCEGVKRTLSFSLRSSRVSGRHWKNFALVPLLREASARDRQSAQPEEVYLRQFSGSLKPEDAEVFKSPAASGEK
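Fluo-8 calcium influx in TRPV1-expressing cells, kinetic read (ex 480/em 520 nm). Compound added and read 3 min for agonist activity, followed by capsaicin at EC20 final and 2 min further read for enhancement.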
CtBP-E1A blk: blocks the CtBP interaction with E1A; AlphaScreen GST-E1A/His-CtBP binding, 1536-well; hits give low values; control for the full effect not named in the record; activity change, % (concentration not given with the values); 340,000 compounds, 0.49% hits; AID 651724; in the data active means activity change below about -65%; inconclusive means about -30% to -65%; inactive means above about -30%; further: on the % scale 0 is the no-effect control and ±100 the full control effect
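AlphaScreen with 125 nM GST-E1A and 125 nM His-CtBP (5X stocks) in Tris pH 8.0, 300 mM NaCl, BSA, Tween 20, TCEP. Compounds preincubated 2 h at 37 deg C, then glutathione donor/nickel acceptor beads added for 1 h at 37 deg C in dark.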
gsp antagonist: gsp mutant antagonism | gsp-mutant cells, cAMP HTRF, 30 min; control for the full effect not named in the record | Potency, µM (series often up to 76.9 µM), for inactives: at the top dose activity change, negative = inhibition, most hits filed as inhibitors | 340,000 compounds, 0.4% hits | AID 624288; active = falling curve of any shape with a large fitted effect; inconclusive = falling curve, mostly with a smaller effect; inactive = flat or rising curve; cell line not stated here;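 further: intracellular cAMP measured with PDE inhibitor Ro 20-1724 present during compound exposure; potency means the concentration at half of the fitted maximal effect; on the % scale 0 is the no-effect control and ±100 the full control effect; nearly all actives have a fitted effect of over 65% in size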
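Cells, 2000/well, grown 16–24 h in DMEM 10% FBS with 0.5 mg/ml G418, then compounds plus […] (300 uM addition stock), 30 min at 37C. cAMP read by HTRF (cAMP-d2 and anti-cAMP antibody-K in lysis buffer) after 30 min RT.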
ClpP mod: qHTS Assay for Activators of ClpP; ATP-dependent Clp protease proteolytic subunit (Bacillus subtilis (strain 168)), P80244; purified B. subtilis ClpP, FRET peptide cleavage, 20 min; Potency, µM (doses to about 57.5 µM), for the others: top-dose activity change, negative = active; 340,000 compounds, 1.9% hits; active = well fitted falling curve with a large enough effect; inconclusive = small, poorly fitted or top-dose-only effect; inactive = no such curve, though single readings can be large or run the other way; further: potency means the concentration at half of the fitted maximal effect; the source files actives as falling curves though it sought activators and does not explain the sign; nearly all actives have a fitted effect of over 65% in size; many hits overshoot -100%
Target sequence (P80244 whole entry, looked up): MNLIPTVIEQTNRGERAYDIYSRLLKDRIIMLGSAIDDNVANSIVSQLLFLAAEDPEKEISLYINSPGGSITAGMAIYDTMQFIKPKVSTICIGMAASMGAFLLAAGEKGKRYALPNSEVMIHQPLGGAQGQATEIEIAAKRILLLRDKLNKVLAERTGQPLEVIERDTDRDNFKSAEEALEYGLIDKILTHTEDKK
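Purified B. subtilis ClpP, 10 microg/mL final in Tris/HCl pH8 with KCl, BSA, glycerol and Tween-20, cleaved an Abz/nitrotyrosine-quenched decapeptide. Fluorescence (ex 320, em 430) was read at 0 and 20 min at room temperature. Delta was normalized to 5.8 microM ADEP and DMSO/no-enzyme controls.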
Starred values were filed as active, the others as inactive; u = inconclusive; x = no result given; [ ] = remark or other dose. Rows are unselected; about 5.3% have a hit in one of these screens.

SMILES	gsp ag	Sfp inh	Menin MLL FP FL	TRPV1 potentiator	CtBP-E1A blk	gsp antagonist	ClpP mod
O=C(CSc1ncnc2scc(-c3ccccc3)c12)Nc1ccc(C(=O)O)cc1	13.2%	-7.6%	0.9	17.8	x	-11.3%	-0.5%
COc1ccccc1NC(=O)CSc1nnnn1-c1ccc(C)cc1	12.6%	6.0%	-0.6	-8.9	5.6	-7.0%	-0.6%
CC(=O)NS(=O)(=O)c1cccnc1Nc1ccc(Cl)cc1	1.7%	27.7%	2.1	-0.7	-12.8	-6.9%	-8.4%
COc1ccc(-c2nc3n(n2)C(=O)CC(c2ccco2)S3)cc1 (stereo not given)	11.2%	u	10.6	10.3	-0.8	-20.8%	-1.3%
O=C1C2C3C=CC(C3)C2C(=O)N1c1n[nH]c(-c2cccnc2)n1 (stereo not given)	-49.3%[inhibitor]	u	-1.0	8.8	4.2	-6.2%	-1.2%
CCC(O)C1CCN(C(=O)c2cc(COc3ccc(F)cc3F)on2)CC1 (stereo not given)	26.7%	6.0%	x	-25.6	x	-9.0%	1.5%
COc1ccc(/C=N/NC(=O)c2ccc(NC(=O)c3cccc([N+](=O)[O-])c3)cc2)c(OC)c1	9.3%[15.4 µM]	7.8%	0.2	1.6	x	-0.4%	x
O=C(Nc1ccc(CN2CCOCC2)cc1)c1ccccc1F	-78.1%[inhibitor]	7.6%	2.2	6.3	3.4	8.4%	-1.4%
O=C(Nc1ccc(S(=O)(=O)NC2CCCCC2)cc1)c1ccco1	u	8.6%	-1.4	-2.0	7.3	11.3%	-1.8%
Cc1c(Cc2ccccc2)c(=O)[nH]c(=O)n1C	-4.7%	x	x	x	4.0	5.0%	x
CN(C)CCn1c(N)nc2ccccc21	2.4%	1.3%	-0.6	-0.1	3.6	6.2%	0.6%
CCN1CCN(C(=O)C2CCCN(S(=O)(=O)c3cccc4nsnc34)C2)CC1 (stereo not given)	16.5%	5.9%	2.9	-18.9	0.0	9.6%	-0.8%
Clc1ccc(CNc2ncnc3[nH]ncc23)c(Cl)c1	-19.8%	x	x	x	-9.5	11.6%	x
COc1cccc(NC(=O)CSc2nnc(Cc3cccs3)n2-c2ccc(C)cc2)c1	-2.0%	12.6%	5.2	-20.1	-8.6	u	-0.9%
Cc1occc1-c1nnc(SCC(=O)c2c[nH]c3ccccc23)n1C	4.6%	50.1µM*	3.2	-0.7	-4.2	-5.8%	0.7%
COc1ccc(C(C)NC(=O)CC23CC4CC(CC(C4)C2)C3)cc1 (stereo not given)	-36.0%[inhibitor]	5.6%	-2.6	3.2	x	-8.6%	-2.3%
COc1cccc(COC(=O)Nc2ccccc2F)c1	8.2%	13.1%	-2.0	-4.2	19.5	6.1%	x
CCOC(=O)NC1=NCC(C)(C)S1	u	x	x	x	5.4	-1.3%	1.7%
O=c1ccc(Cl)nn1-c1ccccc1	-2.0%[15.4 µM]	x	x	x	11.9	8.9%	0.2%
CCOCCOC(=O)C1=C(C)NC(=O)NC1c1cc2c(cc1Br)OCO2 (stereo not given)	-6.1%	7.9%	-4.8	2.6	1.9	13.8%	-0.2%
COc1cccc(CNS(=O)(=O)c2c(C(=O)N3CCCCC3)c(C)n(C)c2C)c1	17.0%	9.1%	-0.2	4.4	4.6	3.8%	1.9%
CCC(=O)N(Cc1cc(=O)[nH]c2ccccc12)c1ccccc1C	11.1%[15.4 µM]	-3.7%	0.0	1.3	-2.5	-6.8%	x
CC(=O)N/N=C(\C)c1cccc(C(F)(F)F)c1	2.5%[15.4 µM]	21.8%	-0.1	2.0	11.6	8.3%	x
CCCN(Cc1nnc(-c2ccccc2Cl)o1)C(=O)c1cccc(S(=O)(=O)N2CCOCC2)c1	-8.0%	12.7%	-0.8	-4.1	-5.3	-9.0%	-1.1%
Cc1cc(C)nc(SCc2nnc(SCC(=O)Nc3nc(-c4ccccc4)cs3)n2-c2ccccc2)n1	2.8%	-12.7%	2.0	18.0	-15.3	5.6%	-0.4%
COc1ccc(OC)c(NC(=O)CN2C(=O)NC3(CCOc4ccccc43)C2=O)c1 (stereo not given)	-29.5%	-3.3%	-0.7	-3.2	-12.8	9.3%	-1.2%
O=C(CN1CCN(Cc2ccccc2Cl)C1=O)NCc1ccccn1	-37.0%	23.5%	-6.1	-0.5	-6.2	6.0%	-1.7%
Cc1sc2nc(CSCC(=O)Nc3ccc(OC(F)F)cc3)[nH]c(=O)c2c1C	u	13.1%	2.8	17.3	1.3	2.8%	-3.7%
CN(Cc1ccccc1)C(=O)c1cccc(C(=O)N(C)Cc2ccccc2)c1	0.2%	8.2%	0.6	5.4	0.9	-6.1%	x
O=C(c1c[nH]c2ccccc12)C(F)(F)F	-17.1%	15.1%	1.1	-0.9	x	-6.3%	-1.4%
O=[N+]([O-])c1cccnc1Oc1ccc(F)cc1F	2.8%[15.4 µM]	5.6%	0.3	4.3	-15.6	9.5%	-8.8%
CCCCCN1N=C(C)CC1=O	2.9%[15.4 µM]	22.1%	-2.7	2.3	6.4	12.0%	0.1%
O=C(Nc1ccnn1C1CCN(C(=O)c2cccc(Cl)c2)CC1)C1CCOC1 (stereo not given)	u	12.6%	x	-7.6	-0.1	-0.9%	-2.0%
CC(=O)NC(Cc1ccccc1F)C(=O)NC1CCN(C(=O)Nc2ccc(C)cc2)CC1 (stereo not given)	u	23.0%	x	-0.3	0.9	6.0%	1.4%
CC1(C)CC2CC(C)(CN2C(=O)COC(=O)c2ccccc2C(F)(F)F)C1 (stereo not given)	-20.2%	x	x	-24.0	x	-24.4%	1.2%
COc1ccc(/C(O)=C2\C(=O)C(=O)N(c3cc(C)on3)C2c2ccccc2OC)cc1 (stereo not given)	30.6%	-2.6%	4.5	-5.2	2.4	-12.4%	-0.6%
NC(=O)CC(NC(=O)c1ccccc1)c1ccc(N2CCCCCCC2)c([N+](=O)[O-])c1 (stereo not given)	-34.6%[inhibitor]	3.3%	5.2	-4.6	-8.5	-3.8%	1.7%
COCCn1c(SCC(=O)N2CCC(C)CC2)nc2ccccc2c1=O	10.0%	16.4%	-4.3	-1.0	-2.1	-11.7%	-2.6%
COC(=O)c1cccc(N(CC(=O)NC2CCCCC2)C(=O)CNC(=O)c2cccs2)c1	-11.4%	12.7%	-2.5	6.0	1.5	-0.2%	x
COc1cc(CN2CCN(Cc3ccco3)CC2)cc(OC)c1	5.9%[15.4 µM]	u	-10.7	0.7	5.5	2.3%	x
O=C(Cn1cc(COc2ccc(C(=O)c3ccccc3)cc2)nn1)c1ccc(O)cc1	x	x	x	x	-3.6	-17.7%	-0.5%
Cc1ccc2c(c1)N(CC(=O)N1CCN(C3CCCCC3)CC1)C(=O)CO2	8.4%[15.4 µM]	-27.9%	0.6	7.5	2.4	6.2%	x
NC(=O)C[C@H](NC(=O)c1ccc(Cl)cc1)C(=O)OCc1ccccc1	u	x	x	x	x	0.5%	1.4%
CCOc1ccc(NC(=O)COC(=O)c2n[nH]c3ccccc23)cc1	-25.9%	x	x	x	-0.5	-8.6%	x
O=C(O)c1cccc(CSc2n[nH]c(-c3ccc(Cl)cc3Cl)n2)c1	2.4%[15.4 µM]	-6.2%	0.0	10.8	-12.0	x	x
COc1ccc(Nc2nc(N)nc(CN3CCN(c4ccc(F)cc4)CC3)n2)cc1	8.4%	21.2%	-2.0	-0.3	-1.3	1.5%	x
Cn1cc([N+](=O)[O-])c(C(=O)n2cccn2)n1	-3.3%[15.4 µM]	16.1%	2.6	3.5	-22.8	8.7%	-1.2%
Cc1cc(C(=O)CSc2ncnc3ccccc23)c(C)n1C1CC1	-0.1%	x	x	7.2	-2.8	-4.3%	-0.1%
S=c1[nH]ccn1CCc1ccccc1	1.3%	-22.6%	-11.2	23.4	6.3	11.5%	x
CCOC(=O)C1=C(c2ccccc2)NC(=O)NC1c1cc(OCC)c(O)c([N+](=O)[O-])c1 (stereo not given)	14.6%[15.4 µM]	10.9%	2.3	-12.4	6.2	u	0.4%
Cc1ccc(C(=O)Nc2ccccc2C(=O)N2CCCCCC2)cc1	25.3%	15.0%	0.2	x	-4.5	-3.6%	x
COc1ccc(/C=N/NC(=O)c2ccncc2)cc1Cn1nc([N+](=O)[O-])c(Br)c1C	-17.1%[15.4 µM]	12.6%	-5.8	-0.5	u	-11.5%	x
O=C(Nc1cccc([N+](=O)[O-])c1)N1CCCCCC1	14.4%	6.4%	x	0.5	-14.6	5.0%	-0.8%
COc1ccc(C2c3ccc4ccccc4c3Oc3ncn(CCCO)c(=N)c32)cc1 (stereo not given)	-3.0%[15.4 µM]	u	-1.1	-12.6	-17.4	0.0%	x
O=c1ccc2cc(S(=O)(=O)NCc3ccccc3)ccc2[nH]1	14.8%	3.5%	-12.2	1.1	-10.0	3.9%	-10.4%
CC(C)C(NS(=O)(=O)c1ccccc1)C(=O)OCc1cc([N+](=O)[O-])cc2c1OCOC2 (stereo not given)	6.8%	7.5%	1.7	-4.8	2.3	-10.0%	31.6µM*
NC(=O)CSc1nc2ccccc2c(=O)n1Cc1ccccc1	6.5%	7.3%	1.8	-0.5	6.7	1.0%	0.6%
COC(=O)C1CC(O)CN1S(=O)(=O)c1cccs1 (stereo not given)	-0.9%	20.9%	-3.3	-2.1	6.3	5.6%	x
Cc1ccc(-n2nc3c(c2NC(=O)c2c(F)cccc2Cl)CS(=O)(=O)C3)cc1C	-21.7%	7.4%	0.4	u	3.9	4.3%	-0.3%
O=C(CCCC(=O)Nc1cccnc1)Nc1cccnc1	-17.6%	-3.4%	6.9	-3.3	3.8	0.9%	0.7%
Cc1cc(OCC(=O)OCC(=O)Nc2cc(S(=O)(=O)N3CCOCC3)ccc2Cl)ccc1Cl	7.8%	x	x	x	0.8	-2.8%	x
COC(=O)NNC(=O)C(c1ccccc1)c1ccccc1	-4.3%[15.4 µM]	x	x	x	-1.5	12.7%	x
